Screening data (PubChem)
MbtI inh: inhibitors of Mycobacterium tuberculosis siderophore enzyme MbtI. P9WFX0. purified MbtI enzyme, fluorescence intensity read-out. inhibition, %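 (about 17 µg/mL by stock and volumes)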. 100,000 compounds, 0.89% hits;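 active = above 50% in both replicates, above 80% if mildly self-fluorescent; inactive = the rest, strongly fluorescent compounds included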;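 also: 0% = mean of negative and 100% = mean of positive controls; one replicate is shown; some compounds called inactive have numbers as strong as hits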
Target sequence (P9WFX0 whole entry, looked up): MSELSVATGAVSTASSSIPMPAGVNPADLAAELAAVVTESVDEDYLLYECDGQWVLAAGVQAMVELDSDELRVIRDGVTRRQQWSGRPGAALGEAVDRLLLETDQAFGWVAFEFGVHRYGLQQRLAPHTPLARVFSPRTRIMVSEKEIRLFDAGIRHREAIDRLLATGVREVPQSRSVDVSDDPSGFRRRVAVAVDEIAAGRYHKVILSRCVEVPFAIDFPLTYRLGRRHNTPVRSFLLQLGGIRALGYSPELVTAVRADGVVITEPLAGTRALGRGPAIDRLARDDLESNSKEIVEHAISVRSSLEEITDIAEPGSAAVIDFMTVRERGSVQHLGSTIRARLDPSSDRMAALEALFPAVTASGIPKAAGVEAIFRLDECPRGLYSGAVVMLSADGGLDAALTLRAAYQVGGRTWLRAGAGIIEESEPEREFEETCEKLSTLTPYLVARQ
MenB inh: Mtb MenB enzyme inhibition | MenB enzyme assay, absorbance read-out; some hits fall short of the stated cut | inhibition, %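 (about 12 µg/mL by stock and volumes)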 | 100,000 compounds, 0.43% hits;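 active = mean of two replicates above 30%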;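 also: 0% = no compound and 100% = wells with inactive enzyme; the first replicate is given; strong numbers were not always called active; inactives centre near -10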
Target sequence (P9WNP5 whole entry, looked up): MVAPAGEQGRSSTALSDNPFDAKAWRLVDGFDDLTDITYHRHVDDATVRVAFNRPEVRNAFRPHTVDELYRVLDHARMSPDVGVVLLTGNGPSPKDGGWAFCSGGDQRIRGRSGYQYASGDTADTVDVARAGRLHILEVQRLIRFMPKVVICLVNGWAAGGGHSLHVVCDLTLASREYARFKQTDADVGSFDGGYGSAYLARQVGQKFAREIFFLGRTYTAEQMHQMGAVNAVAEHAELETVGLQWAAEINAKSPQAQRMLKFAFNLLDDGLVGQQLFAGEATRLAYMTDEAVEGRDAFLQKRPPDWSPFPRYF
PV pol inh: poliovirus RNA polymerase inhibition. poliovirus polymerase elongation, fluorescence polarization; hits give low values. % elongation, % (compound at 16.7 µg/mL). 150,000 compounds, 0.66% hits. AID 588519; in the data active = % elongation below about 90%; also: some results filed as inactive read as strong as hits
PV pol inh intensity: further read-out of PV pol inh, marked with its call; % elongation; measured here: total intensity read-out; formula for this scale not given here;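 total fluorescence in place of polarization; lower means less elongation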
* marks the source's active call; other numbers are inactive results; · = no result given; & = joins results of further samples. Rows are unselected (roughly 1.7% active in at least one column).

item	SMILES	MbtI inh	MenB inh
1	CCSc1nnc(Cn2c(=O)sc3ccccc32)n1C	-11	-11
2	CCn1cc(C(=O)NCC23CC4CC(CC(C4)C2)C3)c(=O)c2ccc(C)nc21	22	-4
3	OCC1=CC[N+]2(Cc3ccccc3)CCC(O)C12 (configuration not stated)	-10	-13
4	CCS(=O)(=O)c1nc2ccccc2n1Cc1ccccn1	-5	-50
5	Cc1onc(-c2ccc(Cl)cc2)c1-c1ccnc(SCC(=O)c2ccccc2)n1	0	-14
6	Cc1cccc(CCNC(=O)C2CCN(S(=O)(=O)c3ccc(-n4cnnn4)cc3)CC2)c1	-18	-7
7	Cc1ccccc1-n1cnnc1SCc1nnc(-c2ccccc2Br)o1	-13	-13
8	Cc1ccc2[nH]c3c(c2c1)CCc1cn[nH]c1-3	127	-19
9	O=C(/C=C/c1ccc(S(=O)(=O)N2CCOCC2)cc1)Nc1nccs1	19	-20
10	O=C(O)CC1c2ccccc2Oc2ccccc21	-3	13
11	COc1ccccc1-c1nnc(SCC(=O)OC(C)C)n1-c1ccccc1	·	-46
12	CCN(CC)Cc1cccc2cccnc12	1	·

item	PV pol inh	PV pol inh intensity
1	101	106
2	98	102
3	100	100
4	100	102
5	102	104
6	101	100
7	109	114
8	101	103
9	100	94
10	100	101
11	104	98
12	103	98

Continued.
item	SMILES	MbtI inh	MenB inh
13	CN(C)CC(=O)c1ccc2cc[nH]c2c1	105	-19
14	O=C(Nc1c2c(nn1-c1ccccc1)CSC2)c1ccc(Cl)cc1	8	-18
15	O=C(CN1C=NS(=O)(=O)c2ccccc21)NCCc1ccccc1	-5	2
16	CS(=O)c1nc(-c2ccccc2)cc(C(F)(F)F)n1 (configuration not stated)	20	-28
17	c1ccc(Nc2nncs2)cc1	13	5
18	CCN(c1cccc(C)c1)C1C(=O)c2ccccc2N1C(C)=O (configuration not stated)	28	-8
19	O=C(O)c1ccc(CSCc2ccccc2)o1	·	-11
20	Cc1cc(=O)oc2cc(OCc3cccc(F)c3)ccc12	-2	0
21	Cc1ccc2c(c1)CCCN2C(=O)Cc1c(C)noc1C	1	-16
22	Cn1ccnc1C(O)c1ccc(N)cc1 (configuration not stated)	-1	-48
23	N#Cc1ccccc1OCc1csc(-c2cccs2)n1	101	5
24	CCCCn1cnc2c(cnn2-c2ccc(F)cc2)c1=O	8	-14

item	PV pol inh	PV pol inh intensity
13	101	103
14	100	100
15	102	101
16	105	101
17	105	102
18	100	103
19	102	111
20	102	105
21	109	118
22	104	102
23	110	104
24	104	104

(continued)
item	SMILES	MbtI inh	MenB inh
25	C=CCn1c(CSCc2ccc(F)cc2)n[nH]c1=S	64*	-15
26	CCS(=O)(=O)c1ccc2oc(SCC(=O)Nc3ccc4c(c3)OCCO4)nc2c1	7	-25
27	COC(CNC(=O)c1cc(-c2ccccc2)nc2ccccc12)OC	43	-16
28	O=c1c2ccccc2nc(-c2ccccc2)n1CCCn1ccnc1	7	27
29	Cc1c(C(=O)CC#N)c2ccccn2c1CCC#N	-6	·
30	CC(C)c1ccc(NC(=O)CSc2nccn2C)cc1	3	·
31	COc1cccc(NC(=O)c2ccc3nsnc3c2)c1	5	4
32	CS(=O)(=O)c1ccc(NC(=O)c2ccc3c(c2)OCO3)cc1	7	-17
33	CCOc1ccc(NC(=S)NC(Cc2ccccc2)c2ccccc2)cc1 (configuration not stated)	-8	-42
34	Cc1cccc(C)c1Nc1scc(C)[n+]1C	-1	3
35	Cc1cccc(NC(=S)Nc2ccccn2)c1	4	-1
36	N#CC1(NC(=O)CN2CCN(c3ccc(C(F)(F)F)cn3)CC2)CCCC1	1	-12

item	PV pol inh	PV pol inh intensity
25	97	100
26	103	101
27	105	97
28	100	98
29	100	103
30	100	102
31	101	104
32	111	124
33	105	108
34	103	105
35	102	94
36	105	107

3 records drawn at random from the list so far:
item	SMILES	MbtI inh	MenB inh
30	CC(C)c1ccc(NC(=O)CSc2nccn2C)cc1	3	·
32	CS(=O)(=O)c1ccc(NC(=O)c2ccc3c(c2)OCO3)cc1	7	-17
34	Cc1cccc(C)c1Nc1scc(C)[n+]1C	-1	3

item	PV pol inh	PV pol inh intensity
30	100	102
32	111	124
34	103	105

More compounds:
item	SMILES	MbtI inh	MenB inh
37	CC(C)[C@H](NC(=O)c1ccco1)C(=O)Nc1ccc(OC(F)F)cc1	-7	-4
38	CN1CCCC(OC(=O)c2cncc(Br)c2)C1 (configuration not stated)	-7	·
39	O=C(OCc1cccc(Br)c1)C1=COCCO1	2	-11
40	O=C(CN1C(=O)c2cccnc2Oc2ccccc21)NCCc1ccccc1	-1	7
41	Cc1cc(C)cc(OCCSc2nccn2C)c1	-6	-30
42	Cc1ccc(S(=O)(=O)N2CCN(C(=O)c3ccccc3)C2c2ccccc2)cc1 (configuration not stated)	-1	6
43	Cn1c(SCCCn2c(=O)[nH]c3ccccc32)nnc1C1COc2ccccc2O1 (configuration not stated)	-10	2
44	Cc1ccc(-c2nc(C)sc2CC(=O)O)cc1	3	·
45	CNS(=O)(=O)c1cccc(C(=O)OCc2cc(=O)oc3c(C)c(O)ccc23)c1	25	7
46	Cc1nnc(C)n1/N=C/c1ccc(N(C)CCO)cc1	-9	-19
47	c1ccc(C2CCCC(c3ccccc3)S2)cc1 (configuration not stated)	-3	5
48	Cc1nnc(SCc2nc(-c3ccsc3)no2)n1C1CC1	1	6

item	PV pol inh	PV pol inh intensity
37	97	103
38	103	94
39	101	106
40	102	103
41	100	97
42	101	102
43	108	109
44	102	106
45	109	105
46	101	103
47	100	106
48	103	112

Later entries:
item	SMILES	MbtI inh	MenB inh
49	Cc1csc(SCC(=O)NC(=O)C2CCCCC2)n1	2	-11
50	O=C(Nc1ccc(C(=O)O)c(O)c1)c1cccs1	25	5
51	CC12CC3(C)CC(C)(C1)CC(C(=O)NCCc1ccc(S(N)(=O)=O)cc1)(C2)C3	8	·
52	Cc1onc(-c2ccccc2)c1CNS(=O)(=O)c1ccccc1	-3	-6
53	CCN(CC)c1ccc(/C=N/O)cc1	-46	·
54	FC(F)(F)c1ccccc1/C=N/n1cn[nH]c1=S	13	-47
55	CCOc1ccc(NC(=O)c2sc(C)c(CC(=O)Nc3ccc(Cl)cc3)c2O)cc1	-29	-1
56	O=C(NCCO)c1sc2cc(F)ccc2c1Cl	18	-23
57	COc1ccc(Cl)cc1NC(=O)CN(C)c1nnnn1-c1ccccc1	-7	-5
58	CCN(Cc1ccccc1)C(=O)C1CCN(Cc2ccc(OC)cc2)CC1	·	0
59	COC(=O)NC(c1ccccc1)c1ccccc1	-5	-38
60	COC(=O)CN(C)c1nnc(N)s1	96*	-5

item	PV pol inh	PV pol inh intensity
49	103	102
50	101	100
51	101	96
52	102	101
53	100	96
54	103	105
55	103	109
56	102	106
57	105	104
58	105	103
59	106	104
60	91	89

Further records
item	SMILES	MbtI inh	MenB inh
61	CC(C)c1cc(C(=O)Nc2ccc3c(c2)OCCCO3)c2cnn(C(C)C)c2n1	-2	-28
62	CCCCN1CN=C(Nc2nc3ccccc3o2)NC1	0	-4
63	Cc1cc(C(N)=O)c(C)n1-c1ccc(Br)cc1	-9	·
64	O=C(COc1ccccc1)Nc1ccc2c(c1)nc1n2CCN(Cc2ccccc2)C1	96	0
65	CCc1ccc(N2C(=O)N(CC(=O)N(CC)CC)c3ccccc3S2(=O)=O)cc1	-12	-2
66	CCC(=O)Nc1ccc(C(=O)N2CCN(c3ccccc3)CC2)cc1	-8	-25
67	CCN(CC)[P+](NC(=O)c1ccccc1)(c1ccccc1)N(CC)CC	·	2
68	Cn1c(Sc2cnccn2)nnc1-c1ccc(F)cc1	-8	-13
69	CN(C)CCCO[C@H]1[C@@H](C(O)CO)OC2OC(C)(C)O[C@H]21 (some centres not stated)	-10	0
70	Cc1cc2ncn(S(C)(=O)=O)c2cc1C	-13	-33
71	N#CCSc1nnc(Cc2cccs2)n1C1CCCCC1	-5	-29
72	CCC(C)C(NC(=O)c1cccc(Cl)c1)C(=O)OC (configuration not stated)	-12	-4

item	PV pol inh	PV pol inh intensity
61	98	101
62	100	106
63	102	101
64	101	101
65	99	104
66	100	105
67	110	109
68	100	101
69	100	100
70	101	101
71	106	115
72	106	107

(next part)
item	SMILES	MbtI inh	MenB inh
73	CCOc1ccc(-c2nc3ccc(-c4nc5ccc(N6CCN(C)CC6)cc5[nH]4)cc3[nH]2)cc1	-362	-9
74	CCOC(=O)c1c(C)n(C)c2cc(Br)c(C)cc12	2	3
75	Cc1cc(C(=O)NC(C)C(C)(C)C)cs1 (configuration not stated)	-9	-1
76	CN1C(=O)C(O)(CC(=O)c2cccnc2)c2ccccc21 (configuration not stated)	2	9
77	Cc1cc2oc(=O)cc(CSc3nnc(-c4ccco4)n3CC(C)C)c2cc1Cl	-7	-28
78	CN1C(=O)/C(=C2\SC(=S)N(C(CC(=O)O)C(=O)O)C2=O)c2ccccc21 (configuration not stated)	-6	-116
79	CCNc1c(NC(=O)Cc2ccccc2)c(=O)oc2ccccc12	-6	-16
80	CCCC(Nc1cccc(Br)c1)N1C(=O)CCC1=O (configuration not stated)	-10	-43
81	CCOC(=O)c1c(NC(=S)NCc2cc(C)n(C)n2)sc2c1CCCC2	-2	-18
82	O=C(NCCc1ccccc1)C(F)(F)C(F)F	-6	-13
83	O=C1c2ccccc2C(=O)n2ccnc21	-4	-3
84	O=C1NCCN/C1=C\C(=O)c1ccccc1	-15	-379
85	CCOC(=O)c1cc2c(=O)[nH]c(C(F)(F)F)nc2o1	108	-3
86	Cc1nc2nc(-c3ccc(Cl)cc3)[nH]n2c(=O)c1C	-8	14
87	CCC(C)n1c(=S)[nH]c2ccccc2c1=O (configuration not stated)	11	-11

item	PV pol inh	PV pol inh intensity
73	98&97	100&94
74	101	103
75	100	98
76	101	103
77	104	106
78	101	103
79	104	102
80	102	105
81	101	103
82	99	103
83	97	104
84	98	101
85	103	105
86	104	102
87	99	99

Another view of some results above:
cpd | Compound | MbtI inh | MenB inh | PV pol inh | PV pol inh intensity
67 | CCN(CC)[P+](NC(=O)c1ccccc1)(c1ccccc1)N(CC)CC | · | 2 | 110 | 109
68 | Cn1c(Sc2cnccn2)nnc1-c1ccc(F)cc1 | -8 | -13 | 100 | 101
69 | CN(C)CCCO[C@H]1[C@@H](C(O)CO)OC2OC(C)(C)O[C@H]21 (some centres not stated) | -10 | 0 | 100 | 100
70 | Cc1cc2ncn(S(C)(=O)=O)c2cc1C | -13 | -33 | 101 | 101
71 | N#CCSc1nnc(Cc2cccs2)n1C1CCCCC1 | -5 | -29 | 106 | 115
72 | CCC(C)C(NC(=O)c1cccc(Cl)c1)C(=O)OC (configuration not stated) | -12 | -4 | 106 | 107
73 | CCOc1ccc(-c2nc3ccc(-c4nc5ccc(N6CCN(C)CC6)cc5[nH]4)cc3[nH]2)cc1 | -362 | -9 | 98&97 | 100&94
74 | CCOC(=O)c1c(C)n(C)c2cc(Br)c(C)cc12 | 2 | 3 | 101 | 103
75 | Cc1cc(C(=O)NC(C)C(C)(C)C)cs1 (configuration not stated) | -9 | -1 | 100 | 98
76 | CN1C(=O)C(O)(CC(=O)c2cccnc2)c2ccccc21 (configuration not stated) | 2 | 9 | 101 | 103
77 | Cc1cc2oc(=O)cc(CSc3nnc(-c4ccco4)n3CC(C)C)c2cc1Cl | -7 | -28 | 104 | 106
78 | CN1C(=O)/C(=C2\SC(=S)N(C(CC(=O)O)C(=O)O)C2=O)c2ccccc21 (configuration not stated) | -6 | -116 | 101 | 103
79 | CCNc1c(NC(=O)Cc2ccccc2)c(=O)oc2ccccc12 | -6 | -16 | 104 | 102
80 | CCCC(Nc1cccc(Br)c1)N1C(=O)CCC1=O (configuration not stated) | -10 | -43 | 102 | 105
81 | CCOC(=O)c1c(NC(=S)NCc2cc(C)n(C)n2)sc2c1CCCC2 | -2 | -18 | 101 | 103
82 | O=C(NCCc1ccccc1)C(F)(F)C(F)F | -6 | -13 | 99 | 103
83 | O=C1c2ccccc2C(=O)n2ccnc21 | -4 | -3 | 97 | 104
84 | O=C1NCCN/C1=C\C(=O)c1ccccc1 | -15 | -379 | 98 | 101
85 | CCOC(=O)c1cc2c(=O)[nH]c(C(F)(F)F)nc2o1 | 108 | -3 | 103 | 105
86 | Cc1nc2nc(-c3ccc(Cl)cc3)[nH]n2c(=O)c1C | -8 | 14 | 104 | 102
